# Vaccinia stage – blocks a specific stage of Vaccinia orthopoxvirus infection, primary screen, cell-based, single point | Vaccinia-infected cells, mCherry/Venus stage reporter fluorescence; stronger effect = lower value; some inactives read as strong as hits | activity change (mCherry), % (concentration not given with the values) | 0.01% of 89,000 active;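 active = mCherry past -33% and 40 or more points under the early reporter, replicates agreeing; inconclusive = past -33% without that gap or agreement; tested in A549 cells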;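 also: scaled between vehicle wells and reference inhibitor wells; 23 nL library stock went into each well; one replicate is shown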
# Vaccinia stage Venus – also measured in Vaccinia stage; calls as there; activity change (Venus), %; measured here: Venus reporter, other viral stage;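 negative = less Venus signal; first of two replicates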
# Numbers without * were called inactive; ? = inconclusive; / = not tested or not shown; & = joins results of further samples. These rows are one share of the data. The share of hits here may be higher or lower than overall.
SMILES,Vaccinia stage,Vaccinia stage Venus
COc1ccc(NC(=O)N2CC(=O)N3[C@H](C2)[C@H](c2ccc(/C=C/c4ccccc4)cc2)[C@@H]3CO)cc1,?,/
COc1ccc(S(=O)(=O)N2[C@@H]3CNC[C@H]2C3c2ccc(-c3ccccc3F)cc2)cc1 (stereo partly drawn),3,8
CC(C)NC(=O)N(C)C[C@H]1Oc2ccc(NS(=O)(=O)c3ccc(Cl)cc3)cc2C(=O)N([C@H](C)CO)C[C@H]1C,-5,0
CN(C)CC(=O)N1[C@H](C(=O)NCc2ccccc2F)[C@@H](CO)[C@@H]2Cn3c(cccc3=O)[C@@H]21,15,11
CNC[C@H]1Oc2c(NC(=O)C3CCCCC3)cccc2C(=O)N([C@@H](C)CO)C[C@H]1C,7,6
CC=Cc1ccc2n(c1=O)C[C@H]1[C@H](CO)[C@@H](C(=O)Nc3nccs3)N(Cc3cc(F)ccc3F)[C@@H]21 (mixture of isomers),8,11
C[C@@H]1CN([C@H](C)CO)C(=O)c2cc(NC(=O)C3CCCCC3)ccc2O[C@@H](C)CCCCO[C@H]1CN(C)C(=O)Nc1ccc(C(F)(F)F)cc1,6,2
CN(C)C(=O)c1ccc(-c2cccc(-c3nc(C(=O)NCc4ccccc4)cc4c3[C@H](CCO)N([S@@](=O)C(C)(C)C)C4)c2)cc1,-24,-5
C[C@@H]1CN([C@H](C)CO)S(=O)(=O)c2ccc(/C=C/c3ccccc3)cc2O[C@@H]1CN(C)C(=O)NC1CCCC1,?,/
CNC[C@H]1OCCCC[C@@H](C)Oc2ccc(NC(=O)c3ccncc3)cc2C(=O)N([C@@H](C)CO)C[C@H]1C,13,13
C[C@H](CO)N1C[C@H](C)[C@H](CN(C)C(=O)c2ccccc2)OCc2cnnn2CCCC1=O,5&3,1&-2
C[C@H](CO)N1C[C@H](C)[C@@H](CN(C)Cc2ccc(Oc3ccccc3)cc2)Oc2ccc(NS(=O)(=O)c3cccs3)cc2C1=O,-11,-3
C[C@H]1CN([C@@H](C)CO)C(=O)c2cc(C#Cc3cccnc3)cnc2O[C@@H]1CN(C)Cc1ccccc1,8,2
O=C(C[C@H]1CC[C@H]2[C@@H](COC[C@@H](O)CN2Cc2ccc(Cl)cc2)O1)NCc1ccccc1Cl,?,/
CCCNC(=O)[C@H]1[C@H](CO)[C@H]2Cn3c(ccc(C4=CCCC4)c3=O)[C@@H]1N2C(=O)CC,6,7
CCS(=O)(=O)Nc1ccc2c(c1)C(=O)N(C)C[C@H](OC)[C@H](C)CN[C@@H](C)CO2,-4,-7
O=C([C@H]1[C@H](CO)[C@H]2Cn3c(cccc3=O)[C@@H]1N2CC1CCCCC1)N1CCOCC1,3,-4
C[C@@H]1CN([C@@H](C)CO)C(=O)c2c(c3ccccc3n2C)-c2ccccc2CO[C@@H]1CN(C)C(=O)c1ccc(F)cc1,?,/
COc1ccc(S(=O)(=O)Nc2ccc3c(c2)C(=O)N([C@H](C)CO)C[C@H](C)[C@H](CN(C)CC2CC2)OCCCC[C@@H](C)O3)cc1,7,2
O=C(c1ccncc1)N1CCCCN2[C@H](C1)[C@H](c1ccc(-c3ccccc3)cc1)[C@@H]2CO,0,-4
COc1cccc(-c2ccc3c(c2)[C@@H]2[C@@H](CCN2S(=O)(=O)c2ccccc2F)[C@H](CO)N3)c1,?,/
CCCC#Cc1ccc2c(c1)O[C@@H](CN(C)C(=O)c1ccccc1F)[C@@H](C)CN([C@@H](C)CO)S2(=O)=O,6,-3
CNC[C@H]1OCCCC[C@@H](C)Oc2ccc(NS(=O)(=O)c3ccc(F)cc3)cc2C(=O)N([C@H](C)CO)C[C@@H]1C,-12,-5
COCC(=O)N1CCCCN2[C@H](C1)[C@@H](c1ccc(-c3ccccc3)cc1)[C@@H]2CO,21,-1
CO[C@H]1CN(C)C(=O)c2ccc(NC(=O)C3CC3)cc2OC[C@@H](C)N(C(=O)c2ccncc2)C[C@@H]1C,9,6
CCC(=O)N1CC2(CN(C(C)=O)C2)c2c([nH]c3cc(OC)ccc23)[C@H]1CO,4,-2
O=C(C[C@@H]1CC[C@H](NC(=O)CC2CC2)[C@@H](CO)O1)NCc1ccc(-c2ccccc2)cc1,-12,-6
COc1ccc(C#Cc2ccc([C@@H]3[C@H](CO)N4CCCCN(C(=O)Nc5cccc(F)c5)C[C@@H]34)cc2)cc1,?,/
O=C(C[C@@H]1C[C@H]2c3cc(NS(=O)(=O)c4ccccc4)ccc3O[C@H]2[C@H](CO)O1)NCC1CC1,10,9
COc1ccc2c3c(n(C)c2c1)[C@@H](CO)N(Cc1ccccc1)CC31CCN(C(=O)Nc2cccc(F)c2)CC1,-27,-20
C[C@@H]1CCCCO[C@H](CN(C)C)[C@@H](C)CN([C@@H](C)CO)C(=O)c2cc(NS(=O)(=O)c3cccs3)ccc2O1,15,2
CC(C)C#Cc1ccc2c(c1)O[C@@H](CN(C)Cc1ccccn1)[C@@H](C)CN([C@H](C)CO)S2(=O)=O,-16,-13
CN(C)CC(=O)N[C@H]1C=C[C@H](CC(=O)O)O[C@H]1CO,-2,-2
CC(C)C#Cc1ccc([C@@H]2[C@@H](CO)N3CCCCN(C(=O)c4ccc5c(c4)OCO5)C[C@@H]23)cc1,?,/
C[C@H](CO)N1C[C@H](C)[C@H](CN(C)C(=O)Cc2ccccc2)OCCCC[C@H](C)Oc2ccc(NC(=O)Cc3ccccc3)cc2C1=O,-30,-20
COc1ccccc1C(=O)Nc1ccc2c(c1)C(=O)N(C)C[C@@H](OC)[C@H](C)CN(C(C)=O)[C@@H](C)CO2,3,6
C[C@H]1CN([C@@H](C)CO)C(=O)c2cccc(NS(C)(=O)=O)c2O[C@H]1CN(C)Cc1ccc(C(=O)Nc2ccccc2N)cc1,10,12
CO[C@@H]1CN(C)C(=O)c2ccc(NC(=O)C3CCOCC3)cc2OC[C@H](C)N(Cc2nccs2)C[C@@H]1C,6,8
O=C(C[C@H]1CC[C@H](NC(=O)Nc2ccc3c(c2)OCO3)[C@H](CO)O1)NCc1ccc(F)cc1,4,0
COCCNC(=O)C[C@H]1C[C@@H]2c3cc(NC(=O)c4cccnc4)ccc3O[C@@H]2[C@@H](CO)O1,-2,0
CC(C)C#Cc1ccc([C@H]2[C@H](C#N)N(C(=O)C3CC3)[C@H]2CO)cc1,4,-5
COc1cccc(-c2cnc3c(c2)C(=O)N([C@H](C)CO)C[C@H](C)[C@H](CN(C)S(=O)(=O)c2cccc(OC)c2)O3)c1,-1,-8
CS(=O)(=O)N1CCCCN2[C@H](CO)[C@@H](c3ccc(-c4cccc(C#N)c4)cc3)[C@H]2C1,-1,-5
CN1CCN(C(=O)C[C@H]2CC[C@@H](NC(=O)Cc3ccccn3)[C@H](CO)O2)CC1,0,4
Cc1noc(C)c1S(=O)(=O)Nc1ccc2c(c1)C(=O)N([C@@H](C)CO)C[C@@H](C)[C@@H](CN(C)C(=O)c1ccncc1)OCCCC[C@@H](C)O2,14,14
COc1ccc(S(=O)(=O)N(C)C[C@@H]2Oc3c(NS(C)(=O)=O)cccc3C(=O)N([C@H](C)CO)C[C@H]2C)cc1,2,17
CC(C)C#Cc1cnc2c(c1)C(=O)N([C@@H](C)CO)C[C@@H](C)[C@H](CN(C)C(=O)CN1CCOCC1)O2,8,4
O=C(C[C@H]1CC[C@@H]2[C@H](COC[C@@H](O)CN2C(=O)C2CCCC2)O1)NCc1ccncc1,6,6
C[C@H]1CN([C@@H](C)CO)C(=O)Cc2cc(NS(=O)(=O)c3ccc(Cl)cc3)ccc2O[C@@H]1CN(C)Cc1ccc(C(F)(F)F)cc1,-28,-16
CNC[C@@H]1Oc2cc(C#C[C@@H](C)O)ccc2S(=O)(=O)N([C@H](C)CO)C[C@H]1C,14,17

# Copied from the entries so far (three entries):
SMILES,Vaccinia stage,Vaccinia stage Venus
COc1ccc(S(=O)(=O)N(C)C[C@@H]2Oc3c(NS(C)(=O)=O)cccc3C(=O)N([C@H](C)CO)C[C@H]2C)cc1,2,17
CC(C)C#Cc1cnc2c(c1)C(=O)N([C@@H](C)CO)C[C@@H](C)[C@H](CN(C)C(=O)CN1CCOCC1)O2,8,4
O=C(C[C@H]1CC[C@@H]2[C@H](COC[C@@H](O)CN2C(=O)C2CCCC2)O1)NCc1ccncc1,6,6

# Further compounds follow.
SMILES,Vaccinia stage,Vaccinia stage Venus
C[C@H](CO)N1C[C@H](C)[C@H](CN(C)C)Oc2ccc(NC(=O)NC3CCCCC3)cc2C1=O,1,3
Cc1noc(C)c1NC(=O)Nc1ccc2c(c1)C(=O)N([C@@H](C)CO)C[C@@H](C)[C@@H](CN(C)S(C)(=O)=O)O2,19,10
C[C@@H]1CCCCO[C@H](CN(C)Cc2ccc3c(c2)OCO3)[C@@H](C)CN([C@@H](C)CO)C(=O)c2cc(NS(=O)(=O)c3ccc(Cl)cc3)ccc2O1,?,/
N#Cc1cc(NC(=O)c2ccc(Cl)cc2)ccc1Sc1ccccc1,?,/
O=C(Nc1ccccc1)[C@H]1[C@H](CO)[C@H]2Cn3c(ccc(C4=CCCC4)c3=O)[C@H]2N1Cc1cocn1,19,18
CC(C)(C)[C@H]1C=C(C(=O)O)O[C@@H](OCc2ccc(CO)cc2)C1,1,-8
CC(=O)N[C@H]1CC[C@@H](CCNC(=O)Nc2ccc(C(F)(F)F)cc2)O[C@@H]1CO,-10,-7
COCC(=O)N1C[C@H]2[C@@H](c3ccccc31)[C@@H](CO)N2Cc1ccc(OC)cc1,-1,6
Cc1noc(C)c1S(=O)(=O)N(C)C[C@H]1Oc2ccc(NS(C)(=O)=O)cc2CC(=O)N([C@H](C)CO)C[C@H]1C,8,9
COc1ccc(S(=O)(=O)Nc2ccc3c(c2)C(=O)N([C@H](C)CO)C[C@H](C)[C@H](CN(C)C(=O)Nc2ccc(C(F)(F)F)cc2)OCCCC[C@@H](C)O3)cc1,9,1
O=C(C[C@H]1CC[C@@H]2[C@H](COC[C@H](O)CN2Cc2ccc(Oc3ccccc3)cc2)O1)N1CCN(c2ccccc2)CC1,?,/
Cc1cc(C(=O)Nc2cccc3c2O[C@@H](CN(C)Cc2ccc(-c4ccccc4)cc2)[C@@H](C)CN([C@H](C)CO)C3=O)n(C)n1,-16,-6
C/C=C/c1ccc([C@@H]2[C@H](CO)N3CCCCN(S(=O)(=O)c4cccs4)C[C@@H]23)cc1,?,/
COc1ccc(NC(=O)N[C@@H]2CC[C@H](CCn3cc(-c4ccccc4F)nn3)O[C@H]2CO)cc1,7,10
CCNC(=O)C[C@H]1CC[C@H]2[C@@H](COC[C@H](O)CN2C(=O)CC)O1,13,14
COc1ccccc1NC(=O)N1C[C@H](O)COC[C@@H]2O[C@H](CC(=O)NCCc3ccncc3)CC[C@H]21,4,0
C[C@@H]1CN([C@H](C)CO)C(=O)c2cc(-c3ccccc3F)cnc2O[C@@H]1CN(C)Cc1ccccc1F,-12,-11
CCCC(=O)Nc1ccc2c(c1)OC[C@@H](C)N(C(=O)c1ccncc1)C[C@H](C)[C@@H](OC)CN(C)C2=O,13,-7
C/C=C/c1ccc2c(c1)O[C@H](CN(C)C(=O)Nc1ccc(OC)cc1)[C@@H](C)CN([C@H](C)CO)S2(=O)=O,-5,-9
COCC(=O)N1[C@@H]2c3ccc(C4=CCCC4)c(=O)n3C[C@@H]2[C@@H](CO)[C@@H]1C(=O)N1CCN(C)CC1,18,9
Cc1ccc(S(=O)(=O)N(C)C[C@@H]2OCCCC[C@H](C)Oc3ccc(NC(=O)Nc4ccc(C(F)(F)F)cc4)cc3C(=O)N([C@@H](C)CO)C[C@H]2C)cc1,-25,-14
C[C@H](CO)N1C[C@H](C)[C@H](CN(C)CC2CCCC2)Oc2ncc(C#Cc3cccc(F)c3)cc2C1=O,?,/
CC(=O)N1[C@@H](CO)[C@@H]2c3ccccc3N(S(=O)(=O)c3ccccc3F)C[C@@H]21,-9,5
C[C@H]1CCCCO[C@H](CN(C)C(=O)c2ccncc2)[C@@H](C)CN([C@@H](C)CO)C(=O)c2cc(NS(=O)(=O)c3ccc(F)cc3)ccc2O1,27,19
O=C(C[C@H]1CC[C@H](NC(=O)Nc2ccc(C(F)(F)F)cc2)[C@H](CO)O1)NCc1cc(F)cc(F)c1,-24,-14
Cc1noc(C)c1NC(=O)N[C@@H]1CC[C@@H](CC(=O)NCCCN(C)C)O[C@@H]1CO,5,-2
O=C(NCC[C@@H]1CC[C@@H](NC(=O)c2cccnc2)[C@H](CO)O1)Nc1ccc(F)cc1,-1,10
O=C(C[C@H]1CC[C@H]2[C@@H](COC[C@@H](O)CN2C(=O)c2ccccc2F)O1)N1CCN(c2ccccc2)CC1,0,11
CCNC(=O)C[C@@H]1CC[C@@H]2[C@H](COc3ccc(NC(=O)Nc4cccc(Cl)c4)cc3C(=O)N2C)O1,8,-2
CO[C@H]1CN(C)C(=O)c2cc(NC(=O)C3CC3)ccc2OC[C@H](C)N(C(=O)C2CCCCC2)C[C@@H]1C,-1,7
C[C@@H]1CN([C@@H](C)CO)C(=O)c2cc(NC(=O)Nc3ccc4c(c3)OCO4)ccc2O[C@@H]1CN(C)Cc1ccc(Oc2ccccc2)cc1,?,/

# 4 of the compounds above, as labelled records:
mol: O=C(C[C@H]1CC[C@H]2[C@@H](COC[C@@H](O)CN2C(=O)c2ccccc2F)O1)N1CCN(c2ccccc2)CC1
  Vaccinia stage: 0
  Vaccinia stage Venus: 11
mol: Cc1noc(C)c1NC(=O)N[C@@H]1CC[C@@H](CC(=O)NCCCN(C)C)O[C@@H]1CO
  Vaccinia stage: 5
  Vaccinia stage Venus: -2
mol: CC(=O)N1[C@@H](CO)[C@@H]2c3ccccc3N(S(=O)(=O)c3ccccc3F)C[C@@H]21
  Vaccinia stage: -9
  Vaccinia stage Venus: 5
mol: C[C@H](CO)N1C[C@H](C)[C@H](CN(C)CC2CCCC2)Oc2ncc(C#Cc3cccc(F)c3)cc2C1=O
  Vaccinia stage: ?
  Vaccinia stage Venus: /
